# NPYLR7 ag = activates Aedes aegypti NPYLR7 receptor; HEK293T NPYLR7/Galpha15, GCaMP6s calcium fluorescence; activation, % at 10 µM; actives 0.15% (n = 270,000); in the data active = activation above about 40%;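 note: 0% = vehicle and 100% = reference agonist at the receptor; some compounds past the cut are filed as inactive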
# NPYLR7 ag max-min = also measured in NPYLR7 ag; calls as there; activation, %; measured here: Max-Min RFU normalised activation; some inactives read as strong as hits;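 span of the calcium signal over five minutes; 0% = vehicle and 100% = native peptide agonist; compound fluorescence can raise it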
# * = called active by the depositor; & = joins results of further samples. The list is partial; rates above refer to the full screens.
SMILES,NPYLR7 ag,NPYLR7 ag max-min
COc1ccc(N(C)S(=O)(=O)c2ccc(OC)c(N3CCN(C(=O)C4CCC4)CC3)c2)cc1,1,3
O=c1oc2ccccc2c(O)c1C=Nc1ccc(I)cc1,1,-2
O=C(CSc1nnc2ccccn12)NCc1ccc(F)cc1,-5,-6
O=C(N=Nc1c(O)[nH]c2ccc(Br)cc12)c1cc(-c2cccs2)[nH]n1,4,0
COc1ccc(N2C(=O)CSC2c2ccccc2NC(=O)c2cccc(Cl)c2)c(OC)c1 (stereo not given),3,12
C=CCn1c(=O)c(C(=O)Nc2ccc(Cl)cc2Cl)c(O)c2ccccc21,-7,-10
Cc1cc(N2CCOCC2)ccc1NC(=O)c1cnn(-c2cccc(Cl)c2)c1C,-4,-7
O=C(Nc1cccc([N+](=O)[O-])c1)c1ccc2nccnc2c1,3,6
Cc1cc(C(=O)N(C)C[C@@H]2[C@H](O)[C@@H]3O[C@H]2c2ccccc23)c(C)o1,-6,3
CCCCCCCn1c(=O)c2c(nc3n2CCN3c2ccc(Cl)cc2)n(C)c1=O,6,3
Cc1c(CO)cccc1NC(=O)c1cc(C)n(-c2ccccc2)n1,16,11
Cc1cc(C)cc(NC(=O)COc2cc(C(=O)N(C)C)ccc2C)c1,2,-2
CCOc1ccc(N(C(C)C(=O)NCCSc2ccc(Cl)cc2)S(C)(=O)=O)cc1 (stereo not given),5,13
CNc1nc(Nc2ccc(C)c(Cl)c2)nc(N)c1[N+](=O)[O-],3,-1
Cc1ccc(OCCSc2nc3ccc(Br)cc3[nH]2)cc1C,-6,-9
Cc1nccn1CCCNC(=O)c1ccc(N2CCOCC2)c(F)c1,7,10
COc1cccc(Cn2ccnc2CN(Cc2cccnc2)C(=O)c2cccc(F)c2)c1,6,11
Cc1cc(-n2c(C)cc(C(=O)Cn3cnc4c3c(=O)n(C)c(=O)n4C)c2C)no1,-6,-9
COc1ccc(-c2c(C#N)c(N)nc3c2c(C)nn3-c2ccc(F)cc2)cc1OC,7,3
CS(=O)(=O)c1cccc(C(=O)N(Cc2ccccn2)c2nc3c(Cl)cccc3s2)c1,-1,-4
CCC1=NN2C(=N)/C(=C/c3ccc(F)cc3)C(=O)N=C2S1,0,-2
c1ccc(-n2nnnc2SCc2nc3ccccc3o2)cc1,-3,5
c1ccc(Cn2cnc3cnc(Nc4ccc5c(c4)OCO5)cc32)cc1,9,1
Cn1nc(C(C)(C)C)cc1C(=O)N1CCN(C(c2ccccc2)c2ccc(Br)cc2)CC1 (stereo not given),15,0
O=C(Nc1cnccc1-c1ccc(C(F)(F)F)cc1)c1cnns1,-9,-9
CCOc1ccc(O)c(CNC2CCOc3ccccc32)c1 (stereo not given),6,8
Cc1ccsc1CN(Cc1ccc(F)cc1)C(=O)CN(C(=O)Nc1c(C(C)C)cccc1C(C)C)C1CCCCC1,-5,-3
Cc1cccc(Cn2c(=O)n(C(C)C)c(=O)c3oc4ccccc4c32)c1,13,17
COc1ccc(N2CC(NC(=O)NCCCN3CCCC3)CC2=O)cc1OC (stereo not given),-4,1
CCCNC(=O)C1(C)CCCN(Cc2ccc(C(F)(F)F)cc2)C1 (stereo not given),-9,-8
NCC(c1ccc(Cl)cc1Cl)N1CCc2sccc2C1 (stereo not given),-1&1,0&-1
COc1ccc(NC(=O)C2CC=CCC2C(=O)N2CCc3ccccc3C2)cn1 (stereo not given),1,-6
COC1(C)COC(C)(OC)CO1 (stereo not given),3,12
Cn1ccnc1-c1nccn1Cc1ccccc1Cn1cccn1,28,12
COc1cccc2c1NC(=O)CC2C(=O)N1CCC2(CCCO2)CC1 (stereo not given),6,4
CCC(=O)N1CCN(c2ncnc3c2nnn3-c2ccc(Cl)cc2)CC1,-6,-12
CC(C)Oc1nc(-c2ccc(F)cc2)n(-c2cccc(NC(=O)c3ccc(C(F)(F)F)cc3)c2)n1,22,25
O=C(Nc1ccc(OC(F)F)cc1OC(F)F)N1CCCC(C(F)(F)F)C1 (stereo not given),4,0
CC=CC=CC(=O)OCC1=C(C(=O)OCC)C(c2cccs2)NC(=O)N1 (stereo not given),6,1
COc1ccc(-n2c(Cc3ccccc3)nnc2SCc2ccc(C(N)=O)cc2)cc1,18,18
Cc1cccc(-n2nc(C(=O)N3CCN(C)CC3)c(=O)n(Cc3ccccc3Cl)c2=O)c1,13,18
Cc1ccccc1SC1CCN(C(=O)C(=O)c2cccnc2)CC1,1,-5
Cc1cc(F)c2c(c1)CCCN2Cn1nc(C2CCS(=O)(=O)C2)n(C)c1=S (stereo not given),0,3
Cn1ncc2c(NCCCOCC3CCCO3)ncnc21 (stereo not given),4,3
Cc1cc(O)c(CN2CCN(C)CC2)c2c1C(=O)/C(=C/c1cc3cc(Br)ccc3o1)O2,4,6
Cc1noc(-c2ccc(C(C)(C)C)cc2)c1C(=O)NC1CC(C)(C)N(C)C(C)(C)C1,25,11
CCOC(=O)N1CCN(c2cncc(C3=NCCN3)n2)CC1,8,11
O=C1CCC(C(=O)NCCCn2ccnc2)N1 (stereo not given),3,1
Cc1csc2nc(CN(Cc3ccc(F)cc3)C3CC3)cc(=O)n12,1,1
CCN(CC)C(=O)[C@@H]1C[C@H](N)CN1C(=O)Cc1ccc(F)c(C)c1,20,11

# New compounds follow:
SMILES,NPYLR7 ag,NPYLR7 ag max-min
O=C(C=Cc1ccccc1F)NNC(=O)c1ccccc1,-5,8
CCN1CCN(CC(O)COc2ccc(CN3CCC(OC)CC3)cc2OC)CC1 (stereo not given),11,9
OC(c1nc2ccccc2[nH]1)C(O)c1nc2ccccc2[nH]1 (stereo not given),-9,-10
O=c1n(CCNc2ccc(F)cc2)nc2ccccn12,0,2
O=C(CSc1nc2c(cnn2CCO)c(=O)[nH]1)Nc1cccc(F)c1,1,1
O=c1[nH]c(-c2sc3ncccc3c2O)nc2ccsc12,10,6
COc1cc(OC)c(NC(=O)CCc2c(C)nc(N3CCOCC3)[nH]c2=O)cc1Cl,-1,-2
S=P(C1=C(N2CCCCC2)C(=Cc2ccccc2)CC1)(N1CCOCC1)N1CCOCC1,-15,-18
CCOc1nc(-c2cccc(C(F)(F)F)c2)n(-c2ccc(NC(=O)Cc3cccs3)cc2)n1,18,25
Cn1nnc2c(N(CCc3ccccc3)Cc3ccccc3)ncnc21,11,3
O=S(=O)(Nc1ccc(S(=O)(=O)C(F)F)cc1)c1ccc(Cl)c(Cl)c1,2,-1
COCCNC(=O)c1cc(-c2ccccc2F)nc2cc(C(C)(C)C)nn12,4,13
CCCc1cc(-n2nc(C)cc2C)n2nc(C)c(-c3ccccc3)c2n1,1,11
CCc1cccc2c(C(CC(=O)NCc3cccnc3)c3cccc(OC)c3)c[nH]c12 (stereo not given),3,11
CCOC(=O)c1c(C)[nH]c(C(=O)CSc2ncn[nH]2)c1C,0,11
Cc1cc(C)c(C#N)c(N2CCN(Cc3ccccc3)CC2)n1,0,-3
Cn1cc(-c2ccnc(NCC(c3ccccc3)N3CCCCCC3)n2)cn1 (stereo not given),-1,-5
COc1ccc(OC)c(C(=O)N2CCC3(CC2)CC3C(=O)NCCCc2ccccc2)c1 (stereo not given),-3,-8
Cn1ccnc1CN1CCC(c2n[nH]c(=O)n2Cc2ccccc2)CC1,6,3
CCCCc1ccc(N=NC(C(=O)Nc2cc(OC)c(NC(C)=O)cc2OC)=C(C)O)cc1,-9,-15
CC1C(=O)N(c2ccccc2-c2ccccc2)CCN1C(=O)c1ccc2c(c1)OCO2 (stereo not given),-3,13
CC(=O)Nc1cnc(-c2cnn(CC(C)C)c2)cn1,3,0
Cc1ccc(-c2ccnc(N3CCc4nc(N)sc4C3)n2)c(C)n1,-3,-4
C=CCNC(=S)NCc1ccc(CNC(=S)NCC=C)cc1,-3,-4
COC(=O)[C@@H](c1ccc(O)cc1)n1cc2ncccc2c1O,16,2
CCc1ccc2c(c1)NC(=O)C2(C)Cc1ccc(Cl)s1 (stereo not given),2,3
COC(=O)c1ccc(Oc2coc3c4c(ccc3c2=O)OCN(C2CCS(=O)(=O)C2)C4)cc1 (stereo not given),4,1
O=C(Nc1cc(-c2onc3c2CCCC3)ccc1Cl)c1cc(C(F)(F)F)ccc1C(F)(F)F,6,6
CC1CCC(NC(=O)c2cncnc2C(C)C)CC1 (stereo not given),0,0
CC(C)N1CCCN(c2cnn(C)c(=O)c2Br)CC1,2,2
CCCCn1c(=O)c2c(nc3n2CC(C)=NN3CCOC)n(C)c1=O,7,10
COC(=O)CCCCC(=O)N1CCN(c2nccc(-c3ccc(N4CCOCC4)cc3)n2)CC1,5,1
Cc1nnc(SC(C(=O)O)c2ccccc2)c2ccccc12 (stereo not given),-3,-9
CCOC(=O)c1c(NC(=O)C(=O)c2c[nH]c3ccccc23)c(-c2ccc3c(c2)OCO3)cn1C,2,-3
COc1ccc(C(=O)NC2CCN(c3ccccc3C(=O)NC(C)c3ccccc3)CC2)cc1OC (stereo not given),1,-2
COc1cccc(CC2(CO)CCCN(C(=O)C3=CCCC3)C2)c1 (stereo not given),-5,1
c1ccc(-n2nccc2CN2CCCC(OCc3cccnc3)C2)cc1 (stereo not given),4,2
CCNC(=S)N(CCOC)Cc1c(-c2ccccc2)noc1N1CCc2ccccc2C1,12,9
CC1CN(C(=O)CSc2nc(Cl)cc(N3CCN(C(=O)c4ccc(C(C)(C)C)cc4)C(C)C3)n2)CC(C)O1 (stereo not given),10,18
CN(Cc1cc(-c2ccccc2)no1)C(=O)c1cn(Cc2ccccc2F)nn1,13,5

# Given with each value named: part of the list above
smiles: COc1ccc(-c2c(C#N)c(N)nc3c2c(C)nn3-c2ccc(F)cc2)cc1OC
- NPYLR7 ag: 7
- NPYLR7 ag max-min: 3
smiles: CCOc1nc(-c2cccc(C(F)(F)F)c2)n(-c2ccc(NC(=O)Cc3cccs3)cc2)n1
- NPYLR7 ag: 18
- NPYLR7 ag max-min: 25
smiles: NCC(c1ccc(Cl)cc1Cl)N1CCc2sccc2C1 (stereo not given)
- NPYLR7 ag: -1&1
- NPYLR7 ag max-min: 0&-1
smiles: Cn1nc(C(C)(C)C)cc1C(=O)N1CCN(C(c2ccccc2)c2ccc(Br)cc2)CC1 (stereo not given)
- NPYLR7 ag: 15
- NPYLR7 ag max-min: 0

# More entries:
SMILES,NPYLR7 ag,NPYLR7 ag max-min
CCOC(=O)C1CCN(CC(=O)N2N=C(c3cccc(OC)c3)CC2c2ccccc2C)CC1 (stereo not given),19,15
N#Cc1c2n(c3c(=O)[nH]cnc13)CCCCC2,1,12
O=S(=O)(NCc1ccccc1)N1CCCC1Cn1cccn1 (stereo not given),1,1
CCc1cnc(C)nc1NCc1cccnc1-n1cnc2ccccc21,15,6
COc1cc(-c2cccc(O)c2)ncn1,-1,-1
Cc1ccc(-c2ccsc2C(=O)N2CCN(S(=O)(=O)c3ccc(F)c(F)c3)CC2)cc1,1,2
O=C(Nc1ccnn1C1CCN(C(=O)CCn2cncn2)CC1)C1CCCC1,3,1
O=C(c1cc(-c2ccccc2)nn1-c1ccccc1)N1CCCCC1,-1,7
NC1=NC(c2cccc(Cl)c2)N(CCc2ccc(F)cc2)C(N)=N1 (stereo not given),-3,-7
Cc1ccc(NC(=O)N2CCC(C(NC(=O)c3cccs3)C(=O)N3CCCC3)CC2)cc1 (stereo not given),3,6

# Entries listed so far with a cyano group, in the order listed:
SMILES,NPYLR7 ag,NPYLR7 ag max-min
COc1ccc(-c2c(C#N)c(N)nc3c2c(C)nn3-c2ccc(F)cc2)cc1OC,7,3
Cc1cc(C)c(C#N)c(N2CCN(Cc3ccccc3)CC2)n1,0,-3
N#Cc1c2n(c3c(=O)[nH]cnc13)CCCCC2,1,12

# (more compounds)
SMILES,NPYLR7 ag,NPYLR7 ag max-min
CC1(C)C2CCC1(C)C(NC(=O)COc1ccccc1Cl)C2 (stereo not given),10,7
CN(CCC(N)=O)Cc1ccc(Br)o1,-3,-5
O=C(/C=C/c1cc(F)ccc1F)N1CCCC2(CCc3ccccc32)C1 (stereo not given),10,7
Cc1cc(C)cc(NC(=O)CSc2nc(=O)n(Cc3ccco3)c3c2CCC3)c1,-1,0
COc1ccc(CCN(Cc2ccc(C)o2)C(=O)CN(C(=O)CCc2ccccc2)C2CCCCC2)cc1OC,12,11
COc1ccc(OC)c(-c2cnc(-c3cccc(CNC(=O)c4ccccc4OC)c3)[nH]2)c1,6,5
Cc1n[nH]c(C)c1CNC(=O)c1cccc(NCc2cccs2)c1,5,4
COc1ccccc1C(c1c(O)cc(C)[nH]c1=O)c1c(O)cc(C)[nH]c1=O,6,8
CN(Cc1cc(-c2ccncc2)no1)Cc1ccc(Cl)cc1F,-4,-4
Cc1ccc(N2CC(=O)N=N2)cc1,-1,-1
c1ccc(NC2CCCN(Cc3ccc4c(c3)CCO4)C2)cc1 (stereo not given),0,-1
O=C(CCC1CCN(C(=O)C2CCCO2)CC1)N1CCC(Cc2ccccc2)CC1 (stereo not given),8,3
Oc1c(Cl)cc(Cl)cc1CN1CCCn2cncc2C1,19,17
O=C(CSc1nc2c(cnn2CCO)c(=O)[nH]1)Nc1nccs1,4,3
Cc1ccc(NC(=O)CSc2ncc(S(=O)(=O)c3ccc(C)c(Cl)c3)c(=O)[nH]2)cc1F,21,13
Cc1cc(C)n(C(C)C(=O)NCc2ccc(N(C)C)c(C)c2)n1 (stereo not given),4,0
COc1ccc(/C=C2\Oc3c4c(cc(C)c3C2=O)OCN(C2CC2)C4)cc1OC,1,-5
O=S(=O)(NCCc1noc(-c2ccccc2)n1)NCc1ccccc1,2,-1
COc1cc(NC(=O)N(C)CC2CC2)c(C(=O)N2CCCCC2)cc1OC,15,14
Cc1noc(C)c1C(=O)N1CCn2nc(C(=O)N3CCN(C)CC3)cc2C1,-1,-4

# Quoted at random: 5 compounds from above
SMILES,NPYLR7 ag,NPYLR7 ag max-min
Cc1noc(C)c1C(=O)N1CCn2nc(C(=O)N3CCN(C)CC3)cc2C1,-1,-4
Cc1ccc(-c2ccnc(N3CCc4nc(N)sc4C3)n2)c(C)n1,-3,-4
Cc1cc(O)c(CN2CCN(C)CC2)c2c1C(=O)/C(=C/c1cc3cc(Br)ccc3o1)O2,4,6
O=C(Nc1cccc([N+](=O)[O-])c1)c1ccc2nccnc2c1,3,6
Oc1c(Cl)cc(Cl)cc1CN1CCCn2cncc2C1,19,17
